YjeE inh: YjeE (TsaE) inhibition, E. coli; AID 605; purified YjeE, fluorescence polarisation of a bound ADP probe; Potency, µM; 71,000 tested, 0.05% active; active = well fitted falling curve; inconclusive = weaker or top-dose-only fall, or a rising curve; inactive = flat or poorly fitted curve;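 note: top concentration of the series not given in the record; excess ADP was the control for the full effect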
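Fluorescence polarization of a BODIPY Texas Red–ADP probe (2 uM) bound to purified YjeE (10 uM) was read after 15 min room-temperature incubation with compounds. Loss of polarization marks inhibitors; ADP serves as titrated control.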
PK Bst: pyruvate kinase (B. stearothermophilus) modulation. partly purified Bacillus stearothermophilus pyruvate kinase, luminescence ATP production; ribose 5-phosphate activator present at AC10. Potency, µM. 51,000 tested, 1.2% active. AID 361; in the data active means potency below about 11 µM; inconclusive means mostly about 12 µM to 25 µM; inactive means weaker than that;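 the screen sought inhibitors and activators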;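 note: potency is the fitted concentration of half-maximal effect; scaled between full activation by ribose 5 phosphate and full inhibition by luteolin; about four in five hits inhibit and the cells do not say which; series up to 57 µM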
The depositor's hits bear a star. Only part of the results is shown; count on the stated rates, not on these rows.

For CN(C)c1ncc2nc(-c3ccc(Cl)cc3)c(=O)n(C)c2n1 the results were YjeE inh inactive.
Screening CCOc1ccc(NS(=O)(=O)c2ccc3[nH]cc(C(=O)NC(C)CC)c(=O)c3c2)cc1 (stereo not drawn) returned YjeE inh inactive and PK Bst >57.
For O=C(CNC(=O)c1ccco1)NCCCc1ccccc1 the results were YjeE inh inactive and PK Bst >57.
For CC(=O)c1ccc(NC2OC(C)C(O)C(O)C2O)cc1 (stereo not drawn) the results were YjeE inh inactive and PK Bst >57.
CCn1c(C(O)c2ccc(C)cc2)nc2ccccc21 (stereo not drawn) was read as YjeE inh inactive.
`O=C(CSc1nnc(Cn2cnc3ccccc32)o1)c1ccccc1` gave YjeE inh inactive and PK Bst >57.
`COCc1nnc(NC(=O)c2ccc(S(=O)(=O)N(C)c3ccccc3)cc2)o1` gave YjeE inh inactive.
CCOC(=O)Cn1nnnc1CN(Cc1ccc(OC)cc1)Cc1cc2cc(C)cc(C)c2[nH]c1=O was read as YjeE inh inactive and PK Bst >57.
Cc1csc(NC(=O)CSCC(=O)Nc2ccccc2)n1 was read as YjeE inh inactive and PK Bst >57.
For CC1(C)Cc2ccccc2-c2nc(CN3CCOCC3)[nH]c(=O)c21 the results were YjeE inh inactive and PK Bst >57.
CCOC(=O)C1=C(C)N=c2s/c(=C/c3ccco3)c(=O)n2C1c1cccc(OC)c1 (stereo not drawn) was read as YjeE inh inactive.
For CCn1cc(CN(C)C(=O)CSc2nc(-c3ccco3)cc(C(F)(F)F)n2)c(C)n1 the results were YjeE inh inactive and PK Bst >57.
CCOC(=O)C1CCN(S(=O)(=O)c2ccc(OCC(=O)OC)cc2)CC1 was read as YjeE inh inactive and PK Bst >57.
COCc1nnc(NC(=O)CCCOc2ccccc2)s1 was read as YjeE inh inactive and PK Bst >57.
CCOC(=O)Nc1ccc(S(=O)(=O)NCCCN2CCOCC2)cc1 was read as YjeE inh inactive and PK Bst >57.

Entries above containing an aryl methoxy group (2):
CCOC(=O)Cn1nnnc1CN(Cc1ccc(OC)cc1)Cc1cc2cc(C)cc(C)c2[nH]c1=O was read as YjeE inh inactive and PK Bst >57.
CCOC(=O)C1=C(C)N=c2s/c(=C/c3ccco3)c(=O)n2C1c1cccc(OC)c1 (stereo not drawn) was read as YjeE inh inactive.

Other records.
O=C(O)c1ccc(NC(=O)C2(c3ccccc3)CCOCC2)cc1 was read as YjeE inh inactive and PK Bst >57.
`COc1cc(NC(=O)c2c(-c3ccccc3Cl)noc2C)c2ncccc2c1` gave YjeE inh inactive.
`Cc1cc(C)c(C#N)c(Oc2ccc(O)cc2)n1` gave YjeE inh inactive.
Screening CC1=CC(C)(C)N(C(=O)CSc2nnc(-c3ccccc3)o2)c2ccc(C)cc21 returned YjeE inh inactive.
O=C(CNS(=O)(=O)c1ccc(Br)s1)NCc1ccc2c(c1)OCO2 was read as YjeE inh inactive and PK Bst >11.4.
For Cc1oc(-c2cc(Cl)ccc2Cl)cc1-c1nn2c(C)nnc2s1 the results were YjeE inh inactive and PK Bst >57.
COc1cc(NC(=O)Cc2ccccc2OC)cc(OC)c1 was read as YjeE inh inactive and PK Bst >57.
For CCOC(=O)C(NC(C)=O)(Nc1ccc(S(=O)(=O)Nc2onc(C)c2C)cc1)C(F)(F)F (stereo not drawn) the results were YjeE inh inactive and PK Bst >57.
COCCSc1ccccc1C(=O)Nc1nccs1 was read as YjeE inh inactive and PK Bst >57.
For CC(=O)Oc1cccc2c1C(=O)c1c(OC(C)=O)cc(C(=O)O)cc1C2=O the results were PK Bst >25.6.
For CC(C)[C@H](NC(=O)CCn1nnc2ccccc2c1=O)C(=O)O the results were YjeE inh inactive and PK Bst >57.
`COCC(C)n1c(C)cc(C(=O)COC(=O)c2oc3ccccc3c2C)c1C` (stereo not drawn) gave YjeE inh inactive and PK Bst >57.
`COc1ccc(-c2noc(CN(C(=O)C(C)(C)C)C(C)C)n2)cc1` gave YjeE inh inactive and PK Bst >57.
`COc1ccc(C)cc1NC(=O)NC1CCN(Cc2ccccc2)CC1` gave YjeE inh inactive and PK Bst >57.
Cc1ccsc1C1C=C(c2cccc(Br)c2)Nc2ncnn21 (stereo not drawn) was read as YjeE inh inactive and PK Bst >57.
CC(=O)Nc1ccc(S(=O)(=O)Nc2nc(C)cc(-n3nc(C)cc3C)n2)cc1 was read as YjeE inh inactive.
c1cnc(Oc2ccc(-c3nnco3)cc2)cn1 was read as YjeE inh inactive and PK Bst >57.
`CCOc1cc(S(=O)(=O)N2CCN(Cc3ccccc3)CC2)ccc1Br` gave YjeE inh inactive and PK Bst >57.
Screening CN1CCN(S(=O)(=O)c2cccc(S(=O)(=O)c3ccc(Cl)c(Cl)c3)c2)CC1 returned YjeE inh inactive.
For Cc1ccc(N2CC(C(N)=O)CC2=O)cc1 (stereo not drawn) the results were YjeE inh inactive and PK Bst >57.
For COc1ccc(C(CC(=O)O)NS(=O)(=O)c2ccc(C)cc2)cc1OC (stereo not drawn) the results were YjeE inh inactive and PK Bst >57.
`CCOC(=O)Cc1csc(NC(=O)CSc2nc3cccnc3n2CC)n1` gave YjeE inh inactive and PK Bst >57.
`COC(=O)c1ccc(OCC(=O)Nc2nn(-c3ccccc3)nc2C(N)=O)cc1` gave YjeE inh inactive and PK Bst >57.
Screening CC(=O)Nc1cccc(NS(=O)(=O)Cc2ccc(Cl)cc2)c1 returned YjeE inh inactive and PK Bst >57.
Cc1ccccc1C(=O)N(C)Cc1ccccc1 was read as YjeE inh inactive and PK Bst >57.
Screening S=C(c1ccc(N2CCOCC2)cc1)N1CCOCC1 returned YjeE inh inactive and PK Bst >57.
`O=S(=O)(Nc1ccccn1)c1ccc(Oc2ccccc2)cc1` gave YjeE inh inactive and PK Bst >57.
`O=C(O)CCc1nc(-c2ccccc2-n2cccc2)no1` gave YjeE inh inactive.
For Cc1nn(C)c(C)c1S(=O)(=O)N1CCC(C(=O)Nc2ccc3c(c2)OCCO3)CC1 the results were YjeE inh inactive.
For CCCCCCOC(=O)CCn1[nH]c(=O)c2ccccc2c1=O the results were PK Bst >11.4.
COc1ccc2[nH]c(=O)c(CN(CCN3CCCC3)C(=O)Nc3ccccc3Cl)cc2c1 was read as YjeE inh inactive and PK Bst >57.
COc1cc(C(=O)NCc2ccc(OCCN(C)C)cc2)cc(OC)c1OC was read as YjeE inh inactive.
For COc1ccc(C2C(C(=O)c3sc(C)nc3C)=C(O)C(=O)N2CCCn2ccnc2)cc1 (stereo not drawn) the results were YjeE inh inactive and PK Bst >57.
For CCOc1ccc(C2CC(c3ccc(CC)cc3)n3nc(N)nc3N2)cc1 (stereo not drawn) the results were YjeE inh inactive.
`CCOC(=O)Cn1c(=O)c2c(nc(Br)n2CC(=O)OCC)n(C)c1=O` gave YjeE inh inactive and PK Bst >57.
For C[C@@H](C(=O)NCc1ccc(C(F)(F)F)nc1)[C@H]1C[C@]1(C)[C@H](NC(=O)OCc1ccccc1)c1ccccc1 the results were YjeE inh inactive.
`O=C1OCCC1Sc1nnc(-c2ccccc2)o1` (stereo not drawn) gave YjeE inh inactive and PK Bst 8.85*.
c1cncc(C(c2nnnn2C2CCCC2)N2CCCC2)c1 (stereo not drawn) was read as YjeE inh inactive and PK Bst >57.
Cc1ccc(NC(=O)CCN2CCN(C/C=C/c3ccccc3)CC2)cc1C was read as YjeE inh inactive and PK Bst >57.
Cc1sc2nc(SCC(=O)N(CCO)CCO)n(C3CCCCC3)c(=O)c2c1C was read as YjeE inh inactive.
Screening CCCN(Cc1cc2cc(C)ccc2[nH]c1=O)C(=O)c1cccc(OC)c1 returned YjeE inh inactive and PK Bst >57.
For CCCCCn1c(CCNC(=O)c2cccs2)nc2ccccc21 the results were YjeE inh inactive and PK Bst >57.
`CCNc1nc(NCC)nc(Oc2ccc(OCC)nn2)n1` gave YjeE inh inactive.
Cc1ccc(Nc2nnc(SCC(=O)NCc3ccco3)s2)cc1 was read as YjeE inh inactive and PK Bst >57.
For Cc1cc(C(=O)O)ccc1[N+](=O)[O-] the results were YjeE inh inactive.

Arranged by SMILES length (ascending): part of the list above.
`O=C1OCCC1Sc1nnc(-c2ccccc2)o1` (stereo not drawn) gave YjeE inh inactive and PK Bst 8.85*.
For Cc1cc(C(=O)O)ccc1[N+](=O)[O-] the results were YjeE inh inactive.
c1cncc(C(c2nnnn2C2CCCC2)N2CCCC2)c1 (stereo not drawn) was read as YjeE inh inactive and PK Bst >57.
Cc1ccc(NC(=O)CCN2CCN(C/C=C/c3ccccc3)CC2)cc1C was read as YjeE inh inactive and PK Bst >57.
`CCOC(=O)Cn1c(=O)c2c(nc(Br)n2CC(=O)OCC)n(C)c1=O` gave YjeE inh inactive and PK Bst >57.
Cc1sc2nc(SCC(=O)N(CCO)CCO)n(C3CCCCC3)c(=O)c2c1C was read as YjeE inh inactive.
For COc1ccc(C2C(C(=O)c3sc(C)nc3C)=C(O)C(=O)N2CCCn2ccnc2)cc1 (stereo not drawn) the results were YjeE inh inactive and PK Bst >57.

Other compounds:
For CCOC(=O)N1CCOCCOCCN(C(=O)OCC)CCOCC1 the results were YjeE inh inactive and PK Bst >57.
CCOc1ccc(NC(=O)CN(C)S(=O)(=O)c2cccs2)cc1 was read as YjeE inh inactive and PK Bst >57.
For CC(=O)NCc1nc2ccccc2n1Cc1ccccc1C the results were YjeE inh inactive.
Screening CCc1nnc(NC(=O)c2ccc(N3C(=O)CCC3=O)cc2)s1 returned YjeE inh inactive.
`CCCOc1ccc(C(=O)Nc2cc(-c3nn4c(C)nnc4s3)ccc2C)cc1` gave YjeE inh inactive.
`COc1ccccc1C(=O)Nc1cccc(NC(C)=O)c1` gave YjeE inh inactive.
Screening COc1ccc(NC(=O)c2cccnc2N2CCCCC2)cc1 returned YjeE inh inactive and PK Bst >57.
Screening O=C(OCc1nc2ccccc2s1)c1cccs1 returned YjeE inh inactive.
For NS(=O)(=O)c1cc2c(cc1C(F)(F)F)NCNS2(=O)=O the results were YjeE inh inactive and PK Bst >25.6.
Screening CCn1c(=O)cc(OCC(=O)N(C)c2ccccc2F)c2ccccc21 returned YjeE inh inactive.
For Cc1ccc2c(c1)c1ncnc(N3CCc4ccccc4C3)c1n2C the results were YjeE inh inactive.
Screening COC(=O)c1ccc(Cc2ccc(C(=O)OC)o2)o1 returned YjeE inh inactive and PK Bst >57.
For CC1=Nn2c(nc(-c3ccccc3)c2-c2ccccc2)N(CC(N)=O)C(=O)C1 the results were YjeE inh inactive and PK Bst >57.
O=C(Nc1cccc(C(F)(F)F)c1)C1CCN(S(=O)(=O)c2cnc[nH]2)CC1 was read as YjeE inh inactive and PK Bst >57.
For C[C@H]1CCCC2(CC[N+](C)(CCC[N+](C)(C)C)CC2)C1 (stereo partly drawn) the results were YjeE inh inactive.
`c1nnc2c3c4c(sc3ncn12)CCC4` gave YjeE inh inactive.
CCOC(=O)N1CCN(S(=O)(=O)c2ccc3c(c2)OCC(=O)N3)CC1 was read as YjeE inh inactive and PK Bst >57.
Screening CN1CCN(c2ncc3nc(-c4ccc(F)cc4)c(=O)n(C4CC4)c3n2)CC1 returned YjeE inh inactive.
For NC1=NC(c2cccc(O)c2)n2c(nc3ccccc32)N1 (stereo not drawn) the results were YjeE inh inactive and PK Bst >57.
Screening CCN1C=C(C(=O)OC)C(c2cccc(C)c2)C(C(=O)OC)=C1 returned YjeE inh inactive.
`CC(C(=O)Nc1ccc(N2CCOCC2)cc1)N1C(=O)c2ccccc2C1=O` (stereo not drawn) gave YjeE inh inactive and PK Bst >57.
For O=C(Cc1ccc(F)cc1)OCC(=O)c1cc2ccccc2o1 the results were YjeE inh inactive and PK Bst >57.
`CCOc1ccc(N(CC(=O)NC(C)(C)C)C(=O)c2ccco2)cc1` gave YjeE inh inactive and PK Bst >57.
For O=C(NCCc1ccc(Cl)cc1)C1CCCN(S(=O)(=O)c2cnc[nH]2)C1 (stereo not drawn) the results were YjeE inh inactive.
Screening CCCCn1cnc2cc(NCc3cccc(OC)c3O)ccc21 returned YjeE inh inactive and PK Bst >57.
N=C1C=CC=C2C1=NC1(CCCCC1)N2O was read as YjeE inh inactive.
`Cc1cc(NC(=O)CN2CCN(c3ccccc3F)CC2)nc2c1c(=O)oc1ccccc12` gave YjeE inh inactive.
Screening CN1CCN(c2oc(COc3ccc(-c4ccccc4)cc3)nc2C#N)CC1 returned YjeE inh inactive.
Screening COc1ccccc1C1SCCN1S(C)(=O)=O (stereo not drawn) returned YjeE inh inactive and PK Bst >57.
`Nc1nc(-c2ccccc2)cc(-c2ccccc2O)n1` gave YjeE inh inactive.
`COc1cc(C)nc(NC(=O)COc2ccc(Cl)cc2C)n1` gave YjeE inh inactive and PK Bst >57.
For CC(C)=CC(=O)OCC(=O)NC(=O)NC(C)(C)C the results were YjeE inh inactive and PK Bst >57.
CCn1c(Cc2ccccc2)nnc1SCc1nc2ccccc2c(=O)[nH]1 was read as YjeE inh inactive and PK Bst >57.
Screening CCOC(=O)c1c(C)c(C(=O)Nc2ccc3c(c2)OCCO3)c(C)n1C returned YjeE inh inactive and PK Bst >57.
For O=C(c1csnn1)N1CCC2(CCCN(C(c3ccccc3)c3ccccc3)C2)CC1 the results were YjeE inh inactive.
O=c1c(-c2ccccc2)n[nH]c2ccccc12 was read as YjeE inh inactive and PK Bst inactive.
Screening COc1ccc(S(=O)(=O)Nc2ccccc2C(F)(F)F)cc1 returned YjeE inh inactive and PK Bst >57.
For Cc1sc2ncnc(SC(C)C#N)c2c1C (stereo not drawn) the results were YjeE inh inactive and PK Bst >57.
`COc1ccc(NC(=O)c2cc3n(n2)C(C(F)(F)F)CC(c2ccco2)N3)cc1` (stereo not drawn) gave YjeE inh inactive and PK Bst >57.
